# From PubChem BioAssay
# VACV E9 pol inh = vaccinia E9 polymerase processive synthesis inhibition. in vitro processive DNA synthesis, absorbance read-out; active compounds read low; some inactives read as strong as hits. normalized absorbance, % (concentration not given with the values). 46,000 compounds, 0.94% hits. AID 493162;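 active = replicate mean up to 90% and picked by the depositor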;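 also: 100% = median of the test wells of a plate; 100 nL library stock went into each well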
# An asterisk follows results filed as active. This is a subset, so the mix of outcomes need not match the whole.
SMILES,VACV E9 pol inh
c1ccc(-c2[nH]ncc2-c2nc3ccccc3[nH]2)cc1,91
Cc1cccc(CN2CCN(Cc3cccc(C)c3O)CC2)c1O,100
NC(=O)CSc1nc(-c2ccccc2Cl)ns1,97
CCN(CC)c1ccc(C(=O)N=c2sc3c4ccccc4ccc3n2C)cc1,100
O/N=C/c1ccc(Cl)s1,90
CN(C)c1ccc(/C=c2/sc3nnc(-c4ccccc4)n3c2=O)cc1,100
C=CCSC1=C(C#N)C(c2ccc(OC)cc2)CC(=O)N1 (centres undefined),90
CCC1Oc2ccccc2N(CC(=O)N2CCOCC2)C1=O (centres undefined),99
COC(=O)CSc1sc(=S)sc1SCC[n+]1ccccc1,99
COc1ccc(NC(C)=O)cc1C#N,99
CC(C)c1ccc(-n2cccc2)cc1,90
O=C1CC(Nc2c[nH]c(=O)[nH]c2=O)C(=O)N1c1ccc(Br)cc1 (centres undefined),97
COC(=O)c1cc(Br)ccc1NC(=O)c1cc2ccccc2oc1=O,103
COc1ccc(C(=O)Nc2ccc3nc(N4CCN(c5ncccn5)CC4)cc(C)c3c2)c(OC)c1,101
CCn1c(=N)n(CC(=O)c2ccc(Br)cc2)c2ccccc21,100
CC1=[N+]([O-])C(C)(C)C(c2ccc(Cl)cc2)=[N+]1[O-],100
O=C(c1ccc2c(c1)N(Cc1ccccc1)C(=O)c1ccccc1S2)N1CCCC1,88
CCOc1ccc(-c2nc3ccc(C)cc3[nH]2)cc1,100
O=C(CSCc1cnn(-c2ccccc2)c1-n1cccc1)N1CCN(c2ccc(F)cc2)CC1,99
O=C(CCc1ccccc1)Nc1cccc(NC(=O)CCc2ccccc2)n1,100
O=C(NCCSc1c[nH]c2ccccc12)c1c(F)cccc1F,101
Cn1nc(C(=O)N2CCN(c3cccc(C(F)(F)F)c3)CC2)c2c1-c1ccccc1OC2,98
CC(=Nc1cc(C)[nH]n1)C1CCOC1=O (centres undefined),116
CCOC(=O)/C(C#N)=C1\SC=C(c2ccccc2)N1c1c(C)cccc1C,102
CCOC(=O)c1csc(NC(=O)c2ccc(S(=O)(=O)N(CC)CC)cc2)n1,100
Cc1cc(NC(=O)/C=C/c2cccs2)n(-c2ccccc2C(F)(F)F)n1,96
Clc1cccc(-n2cc(-c3ccccc3)c3c(NCC4CCCO4)ncnc32)c1 (centres undefined),102
O=[n+]1cc(-c2ccc(F)cc2)n([O-])c2c1CCC2,100
N#Cc1c(/N=C/c2ccc(F)c(F)c2)sc2c1CCC2,100
Cc1cc(Cl)c(C(=O)NC(C)C2CC2)cc1Cl (centres undefined),101
Fc1ccc(-c2csnn2)cc1,111
CC(=O)N1N=C(c2ccc3ccccc3c2)OC12CCCC2,101
Cc1ccc(-c2nnc(NC(=O)C3CC3)s2)cc1,100
O=C1C=C2N(c3ccccc3)CCOC2(O)c2ccccc21 (centres undefined),99
CCOC(=O)C1=C(C)N(CCO)C(=O)NC1c1ccc(O)cc1 (centres undefined),95
COc1cccc(C(=O)Nc2c3c(nc4ccccc24)CCCC3)c1,98
Cc1nn2c(c1-c1ccccc1)NC(C(F)(F)F)(C(F)(F)F)NC2=O,98
COc1cccc(CC2(O)C(=O)Nc3ccccc32)c1 (centres undefined),111
N#Cc1ccc(-c2ccc(O)cc2)cc1,100
O=C1CCS(=O)(=O)c2ccccc2N1Cc1ccccc1,98
CCOC(=O)c1cc(-c2ccc(F)cc2)n(CC(=O)N(C)Cc2ccccc2)c1C,104
c1ccc2c(CN3CCNCC3)cccc2c1,87
Clc1ccc2nc(-c3cccnc3)c(Nc3ccccc3)n2c1,105
COC(=O)c1ccc(NN)cc1,81*
FC(F)(F)c1cnc(Oc2ccccc2)c(Cl)c1,89
CCOC(=O)c1csc(N)n1,101
CCN(CC)C(=O)N1CCN(C)CC1,100
Cc1oc2cc3c(C(=O)N4CCN(C)CC4)c(C)oc3cc2c1C(=O)N1CCN(C)CC1,100
CC(C)N(C(=O)Cn1c(=N)sc2ccccc21)c1ccccc1,101
O=P(Cc1ccccc1)(c1ccccc1)N(Cc1cccs1)CC1CCCO1 (centres undefined),98
O=C(C1CCCCC1)n1cnc2ccccc21,100
CCc1ccc(NC(=O)N2CCc3cc(S(=O)(=O)N4CCC(C)CC4)ccc32)cc1,114
Cc1ccsc1CNC(=O)c1ccc(Cl)cc1,90
Cc1noc(C)c1-c1nc(CSc2ccccc2)no1,100
COc1ccc(-c2nc(SCC(=O)NC3CCCC3)c(-c3ccc(C)cc3)[nH]2)cc1,98
COc1ccc(C2C(C(=O)NCc3ccc(F)cc3)CCC(=O)N2c2ccc3c(c2)OCO3)cc1 (centres undefined),67
Cc1cc(C)c2c(n1)sc1c(=O)n(Cc3ccccc3Cl)nnc12,100
COc1cc(NC(=O)C(c2ccccc2)C2CCCC2)cc(C(F)(F)F)c1 (centres undefined),104
O=C(NCc1cccs1)c1ccc2c(c1)N(Cc1ccccc1)C(=O)c1ccccc1S2,100
Fc1cccc(F)c1/C=N/n1cnnc1,102
# Continued:
SMILES,VACV E9 pol inh
COc1ccccc1CNC(=O)C(C)n1cccc1C(=O)c1ccccc1 (centres undefined),102
CCOc1ccc(NC2=CC(=O)C=CC2=O)cc1,98
COc1nc(Oc2ccc(/C=N/O)cc2)nc(N(C)C)n1,101
O=C(COc1ccc2c3c(c(=O)oc2c1)CCCC3)Nc1cccc(Br)c1,100
COc1ccc2cc3cc(C(=O)N(C)c4cccc(C(F)(F)F)c4)oc3nc2c1,100
Clc1ccc(Cn2cccn2)cn1,96
C/C(=N\O)C12CC3(C)CC(C)(CC(C)(C3)C1)C2,102
Cc1nc2cc(Cl)ccc2c(=O)n1CC1CCCO1 (centres undefined),102
Cc1cc(C(=O)OCC(=O)N(C)C2CCCCC2)c2ccccc2n1,101
CN1CCCN(C(=O)c2cccnc2Cl)CC1,107
COCCn1c(-c2ccccc2)nc(=S)c2c1CC(C)(C)OC2,89
CN=C(NC#N)NCCSCc1nc[nH]c1C,96
CC(C)(C)CC(C)(C)NC(=O)C1CCCCC1,102
O=C(Nc1ccc(-c2nc3ccccc3[nH]2)cc1)C1=COCCO1,77
CCc1ccc(NC(=O)CS(=O)(=O)c2ccc(Cl)cc2)cc1,100
CCN1CN(Cc2ccccc2)CNC1=S,100
O=C(CN1CCCCC1)N1N=C2c3ccccc3CCC2C1c1ccc(F)cc1 (centres undefined),89
Cc1ccc(SC(C)C(=O)NCc2ccncc2)cc1 (centres undefined),106
CC(=O)Nc1nc(-c2ccccc2)cs1,97
COc1ccc(-c2csc(NC(=O)Cc3ccccc3)n2)cc1OC,100
COC(=O)c1c[nH]c(=S)n1C,103
Cc1nc2c(C)cccn2c1C(Nc1ccc(F)cc1)c1ccccc1 (centres undefined),100
COc1ccc(Cn2ccn(Cc3ccccc3)c(=O)c2=O)cc1,99
CC(=O)Nc1sccc1C#N,96
CN(Cc1ccccc1)C(=O)c1cc(=O)c2ccccc2o1,98
CCc1nc2ccccc2c(C(=O)OCC(=O)N(C)Cc2ccccc2)c1C,100
CCOC(=O)c1c(C)n(CC)c2ccc(OC(=O)c3ccco3)cc12,102
O=c1cc(O)nc(-c2ccc(Cl)cc2)s1,84
CCOc1ccc(-c2cn3c(n2)sc2cc(C(=O)N(C)Cc4ccccc4)ccc23)cc1,99
COc1ccccc1NC(=O)C1CC=CCC1C(=O)O (centres undefined),102
COC(CC(=O)O)c1nc2ccccc2s1 (centres undefined),100
O=S(=O)(Cc1ccc(F)cc1)c1cn(Cc2ccccc2Cl)c2ccccc12,90
CC(=O)NCCOc1ccccc1Cl,99
NCCC12CC3CC(CC(C3)C1)C2,102
CCOc1ccc2c(c1)C1(C)CC(C)(C)N2C(=O)N1c1ccc(Cl)c(Cl)c1 (centres undefined),100
COc1ccc(CN=CC2=C(O)CC(C)(C)CC2=O)cc1,100
CCOC(=O)c1sc(N(Cc2nc(-c3cccc(C)c3)oc2C)C(C)=O)c(C#N)c1C,104
CS(=O)(=O)Nc1ccc(-c2nc3cccnc3s2)cc1,96
O=C(Nc1ccc(F)cc1)C1C2C3CCC(C3)C12 (centres undefined),101
COc1ccc(C(=O)Nc2ccc(O)c(-c3nc4ccccc4s3)c2)c(OC)c1,99
N#CCCN(C(=S)Nc1cccc(C(F)(F)F)c1)C1CCCCC1,111
CN1C(=O)c2cccc3c(S(=O)(=O)Nc4ccc(O)c(C(=O)O)c4)ccc1c23,97
C=CCn1c(-c2ccccc2)n[nH]c1=S,101
Clc1ccc2c(c1)c(-c1ccccc1)nc1nnnn12,102
CC(C)(C)c1cc(C(C)(C)C)n(-c2ccc(N=Cc3ccccc3O)cc2)n1,98
COc1ccc(CCCc2nc3ccccc3[nH]2)cc1,97
CC1(C)CC(=O)C2=C(C1)Nc1ccccc1N(C(=O)C(F)(F)F)C2c1ccc(Cl)cc1Cl (centres undefined),100
O=C(c1ccc2c(=O)n(Cc3ccc4c(c3)OCO4)c(=S)[nH]c2c1)N1CCNCC1,103
CN(C)S(=O)(=O)Nc1ccc(N)cc1,112
O=C1CCCC2=C1C(c1ccccc1)NC(=S)N2 (centres undefined),89
CCOC(=O)CSc1nc(-c2ccc(OC)cc2)cc(C(F)(F)F)n1,108
O=S(=O)(NCc1ccc(Cl)cc1)c1cnc[nH]1,104
O=C(c1cnc2ccccc2n1)N1CCN(c2cccc(Cl)c2)CC1,93
CC1=NN(C(=O)CSc2nnc(-c3ccncc3)o2)C(C)(O)C1 (centres undefined),100
Cc1csc2nc(CNS(=O)(=O)c3ccccc3)cn12,96
COc1ccc(/C=N/N2C(=O)c3ccc4c5c(ccc(c35)C2=O)CC4)cc1Br,106
ClCC1CCCO1 (centres undefined),102
Cc1ccc(C)c(OCCCN2CCNCC2)c1,98
CN(C)CCNC(=O)c1cc(-c2ccc(F)cc2)nc2ccccc12,84
O=C(c1c[nH]c2ccccc2c1=O)N1CCCCC1,100
# (continued)
SMILES,VACV E9 pol inh
Cc1ccccc1NCc1ccccc1O,100
CSc1nnc(COc2cccc3ccc(C)nc23)n1C,106
O=C(Nc1ccncc1)c1cn(-c2ccccc2)nc1-c1cccs1,103
CSc1ncnc2c1ncn2CN1CCOCC1,98
O=C(O)CCNc1ccccc1,100
O=C(Nc1ccccc1)c1cc(Cl)ccc1O,101
CNCc1ccccc1C(F)(F)F,91
Cc1ccccc1OCC(=O)Nc1cccnc1,105
Cc1cccc(NC(=O)C2CC(=O)N(c3ccccc3)C2)n1 (centres undefined),89
Cc1cc(C)n(CCc2nc(-c3ccco3)cs2)n1,102
COC(CN(C)c1cc(C)nc2c(-c3ccc(Cl)cc3)c(C)nn12)OC,97
CSc1nc2ccc(NC(=O)CN3C(=O)CCC3=O)cc2s1,100
O=C(/C=C/c1cccs1)Nc1nc2c(s1)CCCC2,101
CCOC(=O)C1(c2ccccc2)CCN(C)CC1,100
COC(=O)C1=C(C)N(Cc2ccc(C)cc2)C(=O)/C1=C\c1ccccc1O,100
CN1C(=O)/C(=C/c2ccc(-c3ccc(C(=O)O)cc3)o2)c2ccccc21,89
O=C1/C(=C\c2ccccn2)CN(Cc2ccccc2)C/C1=C\c1ccccn1,100
O=C(CN1C(=O)CSc2ncccc21)NCCc1ccccc1,102
CN(C)CCOC(=O)COc1ccc(Cl)cc1,100
COc1ccc(/C=C2\CC/C(=C\c3ccc(Cl)cc3)C2=O)cc1,100

# In the list so far, these contain a furan ring, fused or not:
SMILES,VACV E9 pol inh
Cc1oc2cc3c(C(=O)N4CCN(C)CC4)c(C)oc3cc2c1C(=O)N1CCN(C)CC1,100
COc1ccc2cc3cc(C(=O)N(C)c4cccc(C(F)(F)F)c4)oc3nc2c1,100
CCOC(=O)c1c(C)n(CC)c2ccc(OC(=O)c3ccco3)cc12,102
Cc1cc(C)n(CCc2nc(-c3ccco3)cs2)n1,102
CN1C(=O)/C(=C/c2ccc(-c3ccc(C(=O)O)cc3)o2)c2ccccc21,89

# Next section
SMILES,VACV E9 pol inh
Cc1nc2sc(C(c3ccccc3)N3CCCCC3)c(O)n2n1 (centres undefined),95
CCOC(=O)Cc1c(C)nc(Cc2ccc(OC(C)C)cc2)[nH]c1=O,100
CCOc1ccc(C2SCC(=O)Nc3c2c(=O)[nH]n3C2CCCC2)cc1 (centres undefined),97
CC(=O)N=C(NC(C)=O)c1ccc(N2CCOCC2)cc1,99
CNc1oc(-c2ccccc2)nc1C#N,101
Cc1ccc2nc(NC(=O)c3ccccc3C)sc2c1,96
Cc1cc(C)c(S(=O)(=O)Nc2ccc3[nH]c(=O)[nH]c3c2)c(C)c1,102
O=C(Nc1cccc(Cl)c1)c1ccc(CS(=O)c2ccc(Cl)cc2)o1 (centres undefined),100
COc1ccc(Cl)cc1N/C=C(\C#N)c1nc(-c2ccccc2)cs1,100
COc1ccc(NS(=O)(=O)C(F)(F)F)cc1,98
O=C(CCn1nc(C(F)(F)F)cc1C1CC1)NCCC1=CCCCC1,100
COc1ccc(Cl)cc1N1CC(c2nc3ccccc3[nH]2)CC1=O (centres undefined),101
Cc1ccc(C)n1CCN1CCN(C(=O)c2cccs2)CC1,107
CC(C)(C)C(O)(CC#CCN1CCCC1)c1ccccc1 (centres undefined),100
CC(C)(C)C(=O)CSc1nc2ccccc2c(=O)n1CC1CC1,85
O=C(CSC(c1ccccc1)c1ccccc1)Nc1ccccc1,99
Cc1cc2ncc(C(N)=O)cn2n1,99
CC(C)COc1ccc2[nH]c3c(c2c1)CCC3,98

# An excerpt from above in order of formula weight, smallest number first:
SMILES,VACV E9 pol inh
Cc1cc2ncc(C(N)=O)cn2n1,99
CNc1oc(-c2ccccc2)nc1C#N,101
COc1ccc(NS(=O)(=O)C(F)(F)F)cc1,98
Cc1ccc2nc(NC(=O)c3ccccc3C)sc2c1,96
CC(=O)N=C(NC(C)=O)c1ccc(N2CCOCC2)cc1,99
Cc1ccc(C)n1CCN1CCN(C(=O)c2cccs2)CC1,107
CC(C)(C)C(=O)CSc1nc2ccccc2c(=O)n1CC1CC1,85
Cc1cc(C)c(S(=O)(=O)Nc2ccc3[nH]c(=O)[nH]c3c2)c(C)c1,102
O=C(CSC(c1ccccc1)c1ccccc1)Nc1ccccc1,99
COc1ccc(Cl)cc1N1CC(c2nc3ccccc3[nH]2)CC1=O (centres undefined),101
CCOC(=O)Cc1c(C)nc(Cc2ccc(OC(C)C)cc2)[nH]c1=O,100
O=C(CCn1nc(C(F)(F)F)cc1C1CC1)NCCC1=CCCCC1,100
COc1ccc(Cl)cc1N/C=C(\C#N)c1nc(-c2ccccc2)cs1,100
O=C(Nc1cccc(Cl)c1)c1ccc(CS(=O)c2ccc(Cl)cc2)o1 (centres undefined),100
